# D2 ag = agonists of human D2 dopamine receptor (beta-arrestin) | activation, % (no concentration beside the values) | DiscoveRx PathHunter D2 beta-arrestin, luminescence, 90 min; 100% = 57 uM dopamine signal | 0.084% of 360,000 active; in the data active = activation above about 40%; inconclusive = about 15% to 40%; inactive = below about 15%; further: compound concentration not given in the record; the text of the record calls up to 30% inactive
# Target sequence (P14416 whole entry, looked up): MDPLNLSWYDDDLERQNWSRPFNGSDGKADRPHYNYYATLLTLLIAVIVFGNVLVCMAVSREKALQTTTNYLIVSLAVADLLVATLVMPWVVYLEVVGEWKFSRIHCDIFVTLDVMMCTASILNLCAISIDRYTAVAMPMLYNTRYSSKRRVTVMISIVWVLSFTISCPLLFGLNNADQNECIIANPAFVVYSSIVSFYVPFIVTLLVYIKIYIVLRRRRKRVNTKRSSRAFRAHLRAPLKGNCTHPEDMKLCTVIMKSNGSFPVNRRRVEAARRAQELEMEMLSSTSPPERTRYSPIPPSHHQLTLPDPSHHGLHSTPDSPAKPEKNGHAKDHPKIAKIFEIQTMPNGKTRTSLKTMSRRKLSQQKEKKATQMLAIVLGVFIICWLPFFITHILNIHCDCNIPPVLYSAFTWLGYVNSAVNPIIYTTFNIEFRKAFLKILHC
#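 Agonist mode: compounds alone added to overnight-plated D2 PathHunter cells for 90 min at 37 C, with 57 uM final dopamine (EC100) defining full response. Beta-arrestin recruitment detected by chemiluminescent reagent, read after 1 h at ambient temperature.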
# CtBP-E1A blk = CtBP/E1A binding inhibition; AlphaScreen GST-E1A/His-CtBP binding, 1536-well; stronger effect = lower value; control for the full effect not named in the record; activity change, % (no concentration beside the values); AID 651724; 0.49% of 340,000 active; in the data active means activity change below about -65%; inconclusive means about -30% to -65%; inactive means above about -30%; further: on the % scale 0 is the no-effect control and ±100 the full control effect; compound concentration not given in the record
#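 Steps: dispense buffer (Tris pH 8.0, NaCl 300 mM, TCEP 1 mM, BSA, Tween 20); add 5X protein mix (GST-E1A, His-CtBP, 125 nM each); pin 23 nL compound; 2 h at 37 °C, dark; add 5X beads (50 ug/mL); 1 h; read.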
# gsp agonist = activates gsp, the McCune-Albright syndrome mutation; 0.13% of 340,000 active; Potency, µM (top dose mostly 76.9 µM), for the others: at the highest dose activation (cAMP increase), usual class: activators; gsp mutant cells, cAMP HTRF, 30 min; control for the full effect not named in the record; active = well fitted activation curve with a large enough effect; inconclusive = small, poorly fitted or top-dose-only effect, or another doubt; inactive = no such curve, though single readings can be large or run the other way; cell line not stated here;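 further: phosphodiesterase inhibitor Ro 20-1724 added with compounds to block cAMP breakdown; potency means the concentration at half of the fitted maximal effect; nearly all actives have a fitted effect of over 60% in size; about a fifth of the inactives were tested at one dose only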
#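 Cells stably selected in G418 were plated at 2000/well, grown 16-24 hr, then given compounds in DMSO with the PDE inhibitor […] (300 uM solution added) for 30 min at 37C; cAMP was read by HTRF.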
# D2 PAM = potentiates the human D2 dopamine receptor allosterically; P14416; DiscoveRx D2 beta-arrestin cells, luminescence, 90 min; 100% = 57 uM dopamine signal; potentiation, % (test concentration not listed); 0.23% of 360,000 active; AID 624464; active = potentiation of 50% or more; inconclusive = 30% to 50%; inactive = 30% or less;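 further: compound concentration not given in the record; tested on top of an EC20 dose of dopamine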
#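 D2 cells co-treated with compound plus 50 nM dopamine (EC20) for 90 min at 37 deg C to detect potentiation. Beta-arrestin recruitment was read as enzyme-fragment luminescence after 1 h at ambient temperature. Full response was set by 57 uM dopamine.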
# Six1-Eya2 blk = Six1/Eya2 interaction inhibition; activity change, % (no concentration beside the values); 0.56% of 360,000 active; AlphaScreen GST-Six1/His-Eya2 binding, biochemical; stronger effect = lower value; control for the full effect not named in the record; in the data active = activity change below about -65%; inconclusive = about -30% to -65%; inactive = above about -30%; further: on the % scale 0 is the no-effect control and ±100 the full control effect; compound concentration not given in the record
#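 Six1/Eya2 binding was read as AlphaScreen signal after compounds were pinned into GST-Six1 plus His-tagged Eya2 (5X stock 250/500 nM) in pH 8.0 Tris/NaCl/TCEP buffer, beads added, then incubated 1 h, 37 C, dark.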
# gsp antagonist = gsp mutant antagonism; gsp-mutant cells, cAMP HTRF, 30 min; control for the full effect not named in the record; Potency, µM (top dose mostly 76.9 µM), without a hit: top-dose activity change, negative = inhibition, hits mostly inhibitors; 0.4% of 340,000 active; active = falling curve of any shape with a large fitted effect; inconclusive = falling curve, mostly with a smaller effect; inactive = flat or rising curve; cell line not stated here;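 further: intracellular cAMP measured with PDE inhibitor Ro 20-1724 present during compound exposure; potency means the concentration at half of the fitted maximal effect; on the % scale 0 is the no-effect control and ±100 the full control effect; nearly all actives have a fitted effect of over 65% in size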
#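 Measurement of cellular cAMP by homogeneous time-resolved fluorescence following a 30 min compound exposure at 37C. The PDE inhibitor […] was present throughout; the assay buffer was DPBS with 0.05% BSA and 0.005% Tween 20.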
# * marks the source's active call; other numbers are inactive results; ? = inconclusive; / = not tested or not shown; [ ] = another dose, or the depositor's remark.
item	Compound	D2 ag	CtBP-E1A blk	gsp agonist	D2 PAM	Six1-Eya2 blk	gsp antagonist
1	O=C(O)CCn1c(=S)n(CCC(=O)O)c2ccccc21	-1.0	8	12%	-2	0	6%
2	COC(=O)CN1C(c2ccc(OC)cc2)=Nc2ccc(Cl)cc2C1c1ccccc1 (stereo not given)	3.0	-16	-8%	9	-16	6%
3	c1ccc2c(c1)CCCC2C1=NCCN1 (stereo not given)	-5.0	-2	/	-6	1	4%
4	O=S(=O)(NCCCCCNS(=O)(=O)c1ccccc1)c1ccccc1	2.2	-3	5%	8	9	5%
5	O=C(Nc1ccc(F)cc1)c1ccc2nc[nH]c2c1	3.9	/	-8%	-9	6	-10%
6	CCOc1ccc(N(CC(=O)NCCSCc2ccco2)S(=O)(=O)c2ccc(F)cc2)cc1	-2.8	2	8%[15.4 µM]	-30	-18	-5%
7	COc1ccc(NC(=O)Nc2cccc(F)c2)c(OC)c1	-4.8	-4	?	-11	-1	-4%
8	Cc1cccc(C(C)C)c1NC(=O)C(C)OC(=O)Cc1n[nH]c(=O)c2ccccc12 (stereo not given)	-2.3	4	2%	-2	-1	6%
9	CCC(C)NC(=O)COC(=O)c1cc([N+](=O)[O-])ccc1Sc1nc(C)cs1 (stereo not given)	-0.4	3	-7%	51*	-15	-16%
10	Nc1ncc(Br)cc1S(=O)(=O)Nc1cc(C(F)(F)F)cc(C(F)(F)F)c1	-3.7	3	-4%[15.4 µM]	4	3	-16%
11	Cc1ccc2c(C)c(C(=O)N(C)Cc3ccncn3)oc2c1C	-2.1	0	?	-5	-4	1%
12	Cc1c(CN2CCCC(C(=O)c3cccc(OC(C)C)c3)C2)c(=O)n(-c2ccccc2)n1C (stereo not given)	0.8	/	-8%[15.4 µM]	-6	15	11%
13	O=c1[nH]c2ccccc2c(O)c1-c1ccccc1	-6.3	-1	-91%[inhibitor]	-5	2	7%
14	CCOC(=O)c1[nH]c(C)c(C(=O)N2CCN(C(=O)c3ccco3)CC2)c1C	3.3	1	-42%[inhibitor]	3	2	12%
15	CCCc1nc(NCc2ccco2)c(C#N)c2c1COC(C)(C)C2	-2.8	6	29%	-6	0	3%
16	CC(=O)NCCNc1nc2cc(-c3ccc(C(=O)N4CCN(C)CC4)cc3)sc2c(=O)n1C	0.4	-2	/	0	-9	/
17	Nc1cc(=O)[nH]c(SCC(=O)NCC2CCCO2)n1 (stereo not given)	-0.8	13	10%	-3	6	7%
18	N#Cc1cccc(NC(=O)CNc2cccc(S(=O)(=O)N3CCCC3)c2)c1	-1.0	-18	-20%[15.4 µM]	-8	4	-4%
19	O=C(N/N=C/c1ccco1)c1cc(=O)[nH]c2ccccc12	5.8	-4	-23%	6	-7	-8%
20	CCOC(=O)C1=CN(CC)S(=O)(=O)NC1c1ccc(C(F)(F)F)cc1 (stereo not given)	0.7	8	/	-2	-3	10%
21	CCS(=O)(=O)N1N=C(c2ccccc2)CC1c1ccc2nccnc2c1 (stereo not given)	-3.5	0	23%	-19	1	-2%
22	O=C(c1ccc(Cl)cc1)N1CCN(c2cccc3[nH]ccc23)CC1	-4.2	-13	7%[15.4 µM]	-6	-3	-9%
23	CCN(CC)CCCn1c(=S)[nH]c2ccccc2c1=O	0.5	0	-16%	4	-5	5%
24	Cc1ccc(S(=O)(=O)N2CCOCC2)cc1NC(=O)COC(=O)c1ccc(Cl)s1	-1.3	-2	1%[15.4 µM]	-11	0	-13%
25	Cc1ccc(NC2CCCN(C(=O)c3cn(C)c4ccccc34)C2)cc1C (stereo not given)	-7.9	-2	-3%	-2	-16	-17%

# Marked active in D2 PAM (from the list above):
item	Compound	D2 ag	CtBP-E1A blk	gsp agonist	D2 PAM	Six1-Eya2 blk	gsp antagonist
9	CCC(C)NC(=O)COC(=O)c1cc([N+](=O)[O-])ccc1Sc1nc(C)cs1 (stereo not given)	-0.4	3	-7%	51*	-15	-16%

# As entered above:
# `COc1ccc(NC(=O)Nc2cccc(F)c2)c(OC)c1` @ D2 PAM: -11
# `COC(=O)CN1C(c2ccc(OC)cc2)=Nc2ccc(Cl)cc2C1c1ccccc1` (stereo not given) @ CtBP-E1A blk: -16
# `CCN(CC)CCCn1c(=S)[nH]c2ccccc2c1=O` @ D2 ag: 0.5

# The main list resumes with the 2 entries that preceded the break.
item	Compound	D2 ag	CtBP-E1A blk	gsp agonist	D2 PAM	Six1-Eya2 blk	gsp antagonist
24	Cc1ccc(S(=O)(=O)N2CCOCC2)cc1NC(=O)COC(=O)c1ccc(Cl)s1	-1.3	-2	1%[15.4 µM]	-11	0	-13%
25	Cc1ccc(NC2CCCN(C(=O)c3cn(C)c4ccccc34)C2)cc1C (stereo not given)	-7.9	-2	-3%	-2	-16	-17%
26	COc1ccc2cc(C(C)=O)c(=O)oc2c1	-0.5	9	24%[15.4 µM]	-3	11	7%
27	COC(=O)CCC(=O)NC(=S)Nc1ccc(S(=O)(=O)N2CCCC2)cc1	0.4	/	17%	-2	8	1%
28	CNC[C@@H]1Oc2ccc(NC(=O)Nc3ccccc3)cc2C(=O)N([C@@H](C)CO)C[C@H]1C	-1.2	0	/	-19	0	0%
29	CC(=O)Nc1ccc(NS(=O)(=O)c2cccc3nonc23)cc1	0.0	1	-30%[inhibitor]	-3	1	1%
30	CC(=O)N(c1c(C)n(C)n(-c2ccccc2)c1=O)C1(C(=O)NC2CCCC2)CCCCC1	-0.8	2	-34%[inhibitor]	-16	3	2%
31	CS(=O)(=O)N(CC(=O)N1CCCC1)Cc1ccc(F)cc1	-0.6	/	-11%	-2	6	1%
32	CC1(C(=O)NS(=O)(=O)c2ccc(C#N)cc2)CCN1C(=O)Cc1ccc(-c2ccccc2)cc1 (stereo not given)	1.3	3	/	-9	1	/
33	CCn1cc(C(=O)Nn2cnnc2)c(=O)c2ccc(C)nc21	-1.5	-1	4%[15.4 µM]	2	-8	12%
34	CN1C(=O)C(=O)N(CC(=O)N2CCc3ccccc32)C1=O	1.4	-4	-1%	-29	7	5%
35	COc1ccc(S(=O)(=O)N2CCCCC2)cc1NC(=O)C1CCCO1 (stereo not given)	-2.2	-12	0%[15.4 µM]	-13	5	/
36	CCc1ccc(OCC(=O)Nc2ccncc2)c(Br)c1	-1.4	0	-9%	-2	1	0%
37	COc1cccc(C(=O)OCC(=O)NCCNC(=O)COC(=O)c2cccc(OC)c2OC)c1OC	-6.2	5	-16%	-14	5	-3%
38	COc1cc2c(cc1NC(=O)c1ccco1)CCCC2	-2.6	31	-8%	-18	-3	-8%
39	Cc1cc(C)n(-c2ncc(C#N)cn2)n1	1.8	?	-10%[15.4 µM]	-2	2	17%
40	COc1ccc(C(=O)Nc2cccc(S(C)(=O)=O)c2)cc1	-1.5	/	8%	-14	3	72%[activator]
41	Cc1cc(C)cc(OCC(=O)OCC(=O)NCCC2=CCCCC2)c1	-5.4	-16	-1%[15.4 µM]	-6	1	8%
42	CCOc1cccc2cc(C(=O)NCc3cccnc3)c(=O)oc12	0.5	0	-28%	-7	3	2%
43	CN(C)c1ccnc(Oc2ccc(C(C)(C)C)cc2)c1C#N	1.7	9	7%	6	5	-23%
44	Cc1ncc([N+](=O)[O-])n1S(=O)(=O)c1cc(Br)ccc1Br	-1.1	-11	-22%	-2	9	4%
45	CCCOc1ccc(Cn2c(=O)oc3ccc(C)cc32)cc1OC	-1.3	-5	-1%	-1	5	-17%
46	Cc1ccc(NC(=O)c2cc(=O)c3ccccc3o2)c(C)c1	-2.9	-9	-33%[inhibitor]	-23	5	4%
47	O=[N+]([O-])c1ccc(C(S(=O)(=O)Cc2ccccc2)S(=O)(=O)Cc2ccccc2)cc1	0.3	4	-5%	-2	2	/
48	COc1ccc(S(=O)(=O)N(C)CC(=O)Nc2ccc(C)cc2)cc1OC	-6.3	3	12%	-3	3	11%
49	CCOC(=O)N1C2CCC(C2)N1C(=O)OCC	-3.7	18	-5%	-12	-2	-4%
50	CCOC(=O)c1[nH]c(C)c(/C=N/O)c1C	-0.8	-10	2%	-5	0	2%[15.4 µM]

# Arranged by SMILES length (ascending): part of the list above.
item	Compound	D2 ag	CtBP-E1A blk	gsp agonist	D2 PAM	Six1-Eya2 blk	gsp antagonist
50	CCOC(=O)c1[nH]c(C)c(/C=N/O)c1C	-0.8	-10	2%	-5	0	2%[15.4 µM]
36	CCc1ccc(OCC(=O)Nc2ccncc2)c(Br)c1	-1.4	0	-9%	-2	1	0%
34	CN1C(=O)C(=O)N(CC(=O)N2CCc3ccccc32)C1=O	1.4	-4	-1%	-29	7	5%

# (listing goes on)
item	Compound	D2 ag	CtBP-E1A blk	gsp agonist	D2 PAM	Six1-Eya2 blk	gsp antagonist
51	CCN(C[C@H]1N[C@@](CC)(C(=O)OC)[C@H]2C(=O)N(C)C(=O)[C@@H]12)C(=O)Nc1ccccc1	-2.6	6	/	-5	3	6%
52	COc1cccc(/C=N/NC(=O)c2c(-c3ccccc3)noc2C)c1OC	2.3	0	-11%	-13	0	6%
53	Cc1ccc(Cl)cc1NS(=O)(=O)c1ccc(-n2cccn2)cc1	-0.7	2	26%	3	-1	-3%
54	O=C(CN1C(=O)CSc2ccc(C(F)(F)F)cc21)Nc1ccccc1	-0.6	0	1%[15.4 µM]	14	1	12%
55	CCCCNC(=O)C1(C)CCN1C(=O)c1ccc2c(c1)CCO2 (stereo not given)	-4.2	-6	/	-13	10	/
56	COc1ccc(CCCc2nnc(SCC(=O)Nc3ncc(C)s3)o2)cc1	0.0	-4	3%	-6	3	-15%
57	CCOC(=O)CSc1nnc(-c2ccc3ncccc3c2)n1C	-0.5	/	5%	-17	1	-12%
58	CCCc1nc(NCC2CCCO2)c2nnn(Cc3ccccc3)c2n1 (stereo not given)	-2.2	0	4%	-9	31	4%
59	COc1cc2cc(C(c3nnnn3C(C)(C)C)N3CCc4ccccc4C3)c(=O)[nH]c2cc1OC (stereo not given)	-0.2	0	-41%[inhibitor]	6	-2	-13%
60	COc1cccc(NC(=O)CSc2nnc(Cn3nnc4ccccc43)n2C)c1	-2.8	-6	14%	5	2	-7%
61	CCCn1c(=N)n(CC(=O)OCC)c2ccccc21	0.4	-4	2%	-11	2	6%
62	COCCNC(=O)c1ccccc1NC(=O)c1cc(OC)cc(OC)c1	-4.5	7	36%[15.4 µM]	-3	5	-12%
63	CCCCn1c(N)c(N(CC(C)C)C(=O)c2oc3ccc(Br)cc3c2C)c(=O)[nH]c1=O	-3.3	1	64%[15.4 µM]	-27	4	-9%
64	CC1=CC(C)(C)Nc2ccc(OC(=O)CN3C(=O)c4cccc5cccc(c45)C3=O)cc21	14	-27	-6%	?	-17	5%
65	COc1cc(/C=N/NC2=NS(=O)(=O)c3ccccc32)ccc1OC(C)=O	-3.7	0	-1%[15.4 µM]	-11	-10	-2%
66	CCC(CC)NC(=O)CCc1nc2ccccc2c(=O)[nH]1	-0.9	1	-14%	-6	0	7%
67	O=C(CNC(=O)C1COc2ccccc2O1)N/N=C\c1ccccc1Cl (stereo not given)	-4.3	5	-15%[15.4 µM]	-1	6	-5%

# Compound activity as filed in PubChem BioAssay.
